VDR inhibitor: blocks the human vitamin D receptor | P11473 | VDR-SRC2-3 peptide fluorescence polarization, 2 h | Potency, µM, for inactives: max response, negative = inhibition, hits mostly inhibitors | 0.93% of 400,000 active | AID 504847; active = well fitted inhibition curve with a large enough effect; inconclusive = small, poorly fitted or top-dose-only effect, or another doubt; inactive = no such curve, though single readings can be large or run the other way; note: series mostly up to about 120 µM
Target sequence (P11473 whole entry, looked up): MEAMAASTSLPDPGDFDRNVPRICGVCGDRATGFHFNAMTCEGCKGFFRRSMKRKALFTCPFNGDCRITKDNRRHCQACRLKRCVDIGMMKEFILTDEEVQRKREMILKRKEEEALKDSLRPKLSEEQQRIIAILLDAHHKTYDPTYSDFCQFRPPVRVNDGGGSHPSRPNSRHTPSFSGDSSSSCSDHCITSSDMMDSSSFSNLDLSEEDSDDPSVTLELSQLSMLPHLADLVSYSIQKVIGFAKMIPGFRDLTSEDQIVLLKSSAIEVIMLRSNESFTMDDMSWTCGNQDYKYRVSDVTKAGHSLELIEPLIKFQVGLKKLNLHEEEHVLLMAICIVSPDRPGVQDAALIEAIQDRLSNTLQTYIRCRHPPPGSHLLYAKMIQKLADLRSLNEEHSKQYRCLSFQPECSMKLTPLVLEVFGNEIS
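The screen uses fluorescence polarization to detect compounds that interfere with recruitment of the SRC2-3 coactivator peptide to VDR; plates are read after 2 h at room temperature.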
* marks the source's active call; other numbers are inactive results; ? = inconclusive; & = joins results of further samples. % is set by controls: 0 for no effect and ±100 for the full control effect; potency is the fitted concentration of half-maximal effect. These rows are one share of the data; count on the stated rates, not on these rows.

SMILES	VDR inhibitor
CCn1c(=O)c2c(nc(SCC(=O)NCC3CCCO3)n2C)n(C)c1=O (stereo not given)	0%
COc1ccccc1NC(=O)c1ccccc1-c1ccccc1C(=O)O	0%
O=C(COC(=O)c1ccc2c(c1Cl)C(=O)c1ccccc1C2=O)NC1CCCCC1	-22%
C=CCn1c(SCCNC(C)=O)nc2cc(-c3ccccc3)sc2c1=O	-19%
COc1ccccc1NC(=O)C(=O)NCCc1csc(-c2cccc(F)c2)n1	12%
O=C(C1CCCCC1)N1CCc2ccccc21	-20%
Cc1cc(Cl)c(OCCN2C(=O)NC(C)(C)C2=O)c(Br)c1	8%
CCCCCCCn1c(=N)n(CC(=O)c2ccco2)c2ccccc21	1%
CC(Sc1nnc(-c2ccncc2)n1-c1ccc(F)cc1)C(=O)NC1CC1 (stereo not given)	2%
CC1(C)CC(=O)C(N=Nc2ccc(F)cc2)=C(O)C1	7%
CCOC(=O)c1nn(-c2ccc(C)cc2)c(=O)cc1OCC(=O)Nc1cccc(C)c1	-5%
CCOc1ccc(C(=O)Nc2c3c(nn2-c2ccc(C)cc2)CS(=O)C3)cc1OCC (stereo not given)	-7%
O=C(Cc1ccc2c(c1)OCCO2)Nc1cccc(S(=O)(=O)N2CCOCC2)c1	1%
COc1ccc(NC(=O)CS(=O)c2ccc(Cl)c(Cl)c2)cc1 (stereo not given)	4%
O=C(Nc1cc([N+](=O)[O-])ccc1N1CCOCC1)c1cccs1	-5%
COc1cc(OC)cc(-c2nc3nc(C)c(CCC(=O)Nc4ccc(Cl)cc4)c(C)n3n2)c1	-3%
CS(=O)(=O)N1CCN(c2ccccc2NC(=O)CSc2nnc(-c3ccco3)o2)CC1	9%
CCn1nnnc1SCC(=O)N1c2ccccc2CCc2ccccc21	6%
CCOC(=O)C1=C(C)N=C2SC(C)C(=O)N2C1c1ccccc1 (stereo not given)	2%
CCOC(=O)Cn1c(CN2CCOCC2)nc2c1c(=O)[nH]c(=O)n2C	1%
O=C(CNC(=O)c1ccc(F)cc1)N/N=C/c1cc(Br)ccc1OC(=O)/C=C/c1ccco1	7%
COc1ccc(C2C=C(c3ccc(C)cc3)Nc3ncnn32)cc1 (stereo not given)	-5%
O=C(COC(=O)CNS(=O)(=O)c1ccc(Cl)cc1)NC1CCCCC1	2%
CCC(Oc1ccc(F)cc1)C(=O)Nc1nc2c(s1)CCCC2 (stereo not given)	21%
Cc1c(C)c2c(OCC(=O)NCC(O)c3ccccc3)cc3c(c2oc1=O)CCC(C)(C)O3 (stereo not given)	-17%
O=C1CC(N2CCN(c3ccccc3Cl)CC2)C(=O)N1c1ccc(F)cc1 (stereo not given)	-1%
O=C(N=Nc1c(O)[nH]c2ccccc12)c1cccc(S(=O)(=O)Nc2ccccc2Cl)c1	-22%
CCOc1ccc(S(=O)(=O)N2CCN(c3ccc(C)cc3C)CC2)c2ccccc12	-19%
CCCCNc1c(-c2ccc(OC)c(SC(C)CC)c2)nc2cc(C)ccn12 (stereo not given)	-20%
CC(C)CN1CCN(CCCOC(=O)Nc2cccc3ccccc23)CC1C (stereo not given)	-2%
O=C(Nc1ccc(Br)cc1)c1cc(S(=O)(=O)NC2CCCC2)ccc1F	7%
CCn1c(SCC(=O)Nc2cccc(S(=O)(=O)N(C)c3ccccc3)c2)nnc1C1CC1	-2%
Cc1ccc(C(=O)NCCNC(=O)c2ccccn2)cc1	7%
CCOC(=O)c1cc2c(c(CCO)n1)[C@@H](CCO)N(S(=O)C(C)(C)C)C2 (stereo not given in full)	-1%
COc1ccc(C(=O)Nc2ccccc2Cc2ccccc2)c(OC)c1	14%
CCCCC(=O)Nc1ccc(C(=O)Nc2ccc(OC)cc2[N+](=O)[O-])cc1	-11%
CC(C)CC(=O)Nc1ccc2c(c1)OCO2	5%
COc1ccc(S(=O)(=O)N2CCC(C(=O)Nc3cccc(C(C)=O)c3)CC2)cc1C	17%
COc1ccccc1NCC(=O)N/N=C/c1sccc1C	-10%
CC1(C)C(=O)CC[C@@]2(C)C1CC(O)[C@@]1(C)C3=CC(=O)OC(c4ccoc4)[C@]3(C)CCC21 (stereo not given in full)	?
CCOc1ccccc1OCCCC(=O)Nc1sccc1C(N)=O	-3%
Cc1csc(SCC(=O)Nc2cccc(S(=O)(=O)N3CCCC3)c2)n1	14%
Cc1cnc(NC(=O)CCc2ccccc2)s1	11%
COc1ccc(S(=O)(=O)N2CCCCCC2)cc1C(=O)N(C)Cc1ccc(Cl)cc1Cl	0%
COC(=O)c1c(NC(=O)c2cccc(N3C(=O)CCC3=O)c2)sc2c1CCN(C(C)=O)C2	-6%
CC(=O)c1cc(CN2CCN(Cc3ccccc3)C(CCO)C2)cs1 (stereo not given)	3%
Cc1ccc(CNC(=O)Cn2cnc3c(NC(=O)OCc4ccccc4)ncnc32)o1	3%
CCc1ccc2[nH]c(=O)c(C(c3nnnn3Cc3ccccc3)N3CCOCC3)cc2c1 (stereo not given)	-5%

In a second layout: results already given
molecule | VDR inhibitor
CC(C)CN1CCN(CCCOC(=O)Nc2cccc3ccccc23)CC1C (stereo not given) | -2%
O=C(Nc1ccc(Br)cc1)c1cc(S(=O)(=O)NC2CCCC2)ccc1F | 7%
CCn1c(SCC(=O)Nc2cccc(S(=O)(=O)N(C)c3ccccc3)c2)nnc1C1CC1 | -2%
Cc1ccc(C(=O)NCCNC(=O)c2ccccn2)cc1 | 7%
CCOC(=O)c1cc2c(c(CCO)n1)[C@@H](CCO)N(S(=O)C(C)(C)C)C2 (stereo not given in full) | -1%
COc1ccc(C(=O)Nc2ccccc2Cc2ccccc2)c(OC)c1 | 14%
CCCCC(=O)Nc1ccc(C(=O)Nc2ccc(OC)cc2[N+](=O)[O-])cc1 | -11%
CC(C)CC(=O)Nc1ccc2c(c1)OCO2 | 5%
COc1ccc(S(=O)(=O)N2CCC(C(=O)Nc3cccc(C(C)=O)c3)CC2)cc1C | 17%
COc1ccccc1NCC(=O)N/N=C/c1sccc1C | -10%
CC1(C)C(=O)CC[C@@]2(C)C1CC(O)[C@@]1(C)C3=CC(=O)OC(c4ccoc4)[C@]3(C)CCC21 (stereo not given in full) | ?
CCOc1ccccc1OCCCC(=O)Nc1sccc1C(N)=O | -3%
Cc1csc(SCC(=O)Nc2cccc(S(=O)(=O)N3CCCC3)c2)n1 | 14%
Cc1cnc(NC(=O)CCc2ccccc2)s1 | 11%
COc1ccc(S(=O)(=O)N2CCCCCC2)cc1C(=O)N(C)Cc1ccc(Cl)cc1Cl | 0%
COC(=O)c1c(NC(=O)c2cccc(N3C(=O)CCC3=O)c2)sc2c1CCN(C(C)=O)C2 | -6%
CC(=O)c1cc(CN2CCN(Cc3ccccc3)C(CCO)C2)cs1 (stereo not given) | 3%

Remaining list, next part
SMILES	VDR inhibitor
CCn1ncc2c(OCc3ccc(C#N)cc3)cc(C)nc21	-3%
COc1cccc(NC(=O)C2CCN(c3ccc(Sc4ccc(C)cc4)nn3)CC2)c1	3%
COc1cc(/C=N/NC(=O)c2ccccn2)cc2c1OCO2	-5%
COc1ccc(Cc2nc3ccc(C(=O)NCCn4ccnc4C)cc3o2)cc1OC	0%
COc1ccc(CC(=O)Nc2cc(-c3cn4cccnc4n3)ccc2OC)cc1	-11%
O=C1C2CC=CCC2C(=O)N1c1ccc(NCCc2ccccc2F)c([N+](=O)[O-])c1 (stereo not given)	5%
N#Cc1ccc(C(=O)Nc2ccc([N+](=O)[O-])cc2)c(F)c1	4%
O=C(NCc1ccccc1)c1ccc(Cl)nc1	-6%
O=C(CSc1nc2ccccc2[nH]1)N/N=C/C=C\c1ccccc1[N+](=O)[O-]	-14%
CCOC(=O)C1CCN(S(=O)(=O)c2c(C)[nH]c(=O)[nH]c2=O)CC1	3%
Cn1c(NC(=O)c2ccc(F)c(F)c2)cc(=O)n(C)c1=O	-5%
O=C(O)C1CCCCC1C(=O)NC1CCCCC1 (stereo not given)	-6%
COc1ccc(-c2ncc(CN3CCN(CCC(C)C)C(CCO)C3)cn2)cc1 (stereo not given)	-5%
CC(C)c1ccc(NC(=O)c2ccc(F)c(S(=O)(=O)N3CCc4ccccc4C3)c2)cc1	9%
COc1ccc(OCC(=O)N2CCN(S(=O)(=O)c3ccc(Cl)s3)CC2)cc1	-17%
CCOC(=O)Cn1nc(-c2ccccc2)ccc1=O	-1%
Cn1c(=O)oc2cc(S(=O)(=O)Nc3ccc(O)cc3)ccc21	1%&0%
CCn1c(=O)cc(SCC(=O)N(C)Cc2ccccc2)c2ccccc21	4%
COc1cc(/C=C/C(=O)OCC(=O)NC(=O)NC(C)(C)C)ccc1OCC#N	3%
COC(=O)c1ccc(C(c2c(N)n(CC(C)C)c(=O)[nH]c2=O)N2CCN(c3ccccc3)CC2)cc1 (stereo not given)	4%
COc1cccc(-c2nnc(-c3ccccc3NC(=O)c3cccc(C(F)(F)F)c3)o2)c1	9%
O=C(Nc1ccsc1C(=O)NC1CCCCC1)c1ccc(F)cc1	10%
O=C(c1ccc(S(=O)(=O)N2CCCC2)cc1)N1CCC(CN2C(=O)c3cccc4cccc(c34)C2=O)CC1	24%
CCOC(=O)c1c(C)[nH]c(C)c1S(=O)(=O)N1CCCC(C(=O)Nc2ccccc2OCC)C1 (stereo not given)	-2%
O=C(NCCCN1CCc2ccccc2C1)C1CCN(S(=O)(=O)N2CCCC2)CC1	0%
O=C(CCS(=O)(=O)c1ccccc1)NCCS(=O)(=O)c1ccccc1	-2%
Cc1ccccc1C(=O)N1CCC(C(=O)N2CCN(S(=O)(=O)c3ccccc3F)CC2)CC1	-6%
CC(C)(C)SCCNC(=O)c1ccc(Cl)c([N+](=O)[O-])c1	5%
CCN(c1ccc(OC)cc1)S(=O)(=O)c1nnc(NC(=O)COc2ccc(F)cc2)s1	-19%&-3%
O=C(NCCc1c[nH]c2ccccc12)C(=O)NCC1OCCN1S(=O)(=O)c1ccc(Cl)cc1 (stereo not given)	4%
Cc1cc(C)c2nc(N3C(=O)C(O)=C(C(=O)c4ccco4)C3c3ccc(O)cc3)sc2c1 (stereo not given)	79µM*
CCCN(C(=O)CSCC(=O)Nc1cccc(C)c1)c1c(N)n(Cc2ccccc2)c(=O)[nH]c1=O	8%
Cc1ccc(-n2ncc(C(=O)NCc3ccc4c(c3)OCO4)c2C2CCN(C(=O)OC(C)(C)C)CC2)c(C)c1	9%
Cc1c(/N=C(\[O-])Nc2ccc(Br)cc2)sn[n+]1C	-7%
Fc1ccccc1/C=N/Nc1ncnc2ccccc12	13%
COc1ccc(N(CC(=O)Nc2cc([N+](=O)[O-])ccc2C)S(C)(=O)=O)cc1OC	18%
CC(=O)NC(Cc1ccc(C)cc1)C(=O)NC1CCN(c2ncccc2[N+](=O)[O-])CC1 (stereo not given)	-11%
O=C(Cn1nnc2ccccc2c1=O)NCc1ccc(Cl)cc1	-20%
O=C(NCc1ccccc1)N1CCN(CCO)CC1	-9%
C=C(C)COc1ccc(C2NC(=O)c3ccccc3O2)cc1OCC (stereo not given)	0%
CCOC(=O)CN1CC23C=CC(O2)C(C(=O)Nc2ccc(F)cc2)C3C1=O (stereo not given)	8%
CC(C)(C)NC(=O)NC(=O)COC(=O)C1c2ccccc2Oc2ccccc21	-17%
CCCCC1CCc2[nH]nc(C(=O)O)c2C1 (stereo not given)	-13%
CCCCN(C)CCNC(=O)C1CCN(c2nc3ccc(CC)cc3s2)CC1	-15%
C=CCN(C(=O)CSC1=NC(=O)CN1C(C)=O)c1nc(C)c(-c2ccccc2)s1	?
Cc1cc(C)c2c(-n3cccc3)c(NC(=O)OCc3ccccc3)sc2n1	-6%
CCN(C(=O)CSc1nnc(-c2ccccc2)o1)c1c(N)n(Cc2ccccc2)c(=O)[nH]c1=O	7%
COc1ccc(Br)cc1CNC(=O)c1ccc2c(c1)N(C)CCS2	-20%
NC(=O)CSc1nnnn1-c1ccccc1Cl	1%
COc1cc(C)c(C)cc1S(=O)(=O)NC1CC(C)(C)NC(C)(C)C1	-8%
O=C(NCC(c1ccc(F)cc1)N1CCOCC1)c1ccc(-c2ccccc2)cc1 (stereo not given)	8%
CCOC(=O)c1ccccc1NC(=O)CSc1cn(CC(=O)N2CCOCC2)c2ccccc12	8%
Cc1nc(C)c2c(c1C(F)(F)F)-c1ccccc1C2(F)F	2%
Cc1nc2ccc(S(=O)(=O)NCC(=O)O)cc2s1	11%
CCc1nc2nc(C)cc(Nc3cc(C)ccc3C)n2n1	5%
COc1ccc(CC(=O)OCC(=O)Nc2cccc(Br)c2)cc1	-8%
Cc1cc(-c2c(C)[nH]n(-c3ccccc3)c2=O)n(-c2ccccc2)n1	-15%
COc1ccc(CCNC2CC(=O)N(CCc3ccccc3)C2=O)cc1 (stereo not given)	-8%
O=C(CSCC(=O)NC1CC1)Nc1ccccc1	-2%
CCOC(=O)C1(Cc2cccc(OC)c2)CCCN(C(=O)c2ccc(OC)o2)C1 (stereo not given)	-1%

Carrying on:
SMILES	VDR inhibitor
O=C(NCc1ccc(F)cc1)c1ccc(N2CCOCC2)c([N+](=O)[O-])c1	-17%
Cc1ccc(SCc2ccc(C(=O)NCc3ccncc3)cc2)cc1	4%
CC1CN=C(N(C(=O)Nc2ccccc2)C(C)C)S1 (stereo not given)	11%
Cc1ccc(C(=O)CSc2nnc(COc3cccc4cccnc34)o2)cc1	-16%
O=C(NCCc1ccncc1)c1ccccc1F	1%
O=C(NN=Cc1cccc([N+](=O)[O-])c1)c1cc(-c2cccnc2)nc2ccccc12	-3%
Cc1ccc(CN2C(=O)C(O)(c3c[nH]c4ccccc34)c3cc(Cl)ccc32)cc1 (stereo not given)	-7%
O=C(N/N=C/c1ccc(-c2cccc(C(F)(F)F)c2)o1)c1cccc(F)c1	27%
CCOc1ccc(/C=N/n2c(-c3ccccc3)n[nH]c2=S)cc1	0%
